Screens (PubChem BioAssay)
Bead autofluor: compound fluorescence in toxin protease inhibitor counterscreen; actives 3.1% (n = 360,000); compound autofluorescence counterscreen, microsphere flow cytometry; active compounds read high; fluorescence intensity (concentration not given with the values);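 active = at least 3 SD above the mean of all compounds, about 16000 in these data; inconclusive = too few beads counted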;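 note: 100 nL of 1 mM stock went into each well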
BJeLR viability: BJeLR cell viability loss; BJeLR (HRASV12) viability, CellTiter-Glo ATP luminescence, 48 h; reference of the scale not given here; inhibition, % (no concentration beside the values); actives 0.17% (n = 300,000);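 active = replicate mean above 50%; inconclusive = above 50% but judged a plate artefact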;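 note: 50 nL library stock added to about 25 µL; numbers are from one replicate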
PrP 5UTR inh: suppresses PrP 5' UTR mRNA reporter expression. cell-based PrP 5' UTR mRNA reporter, plate reader. inhibition, % (no concentration beside the values). actives 0.35% (n = 340,000). AID 488862;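 active = every replicate at 50% or more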;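 note: 0 = median of the neutral control wells; tested in H4 reporter cells; numbers are from one replicate; inactives centre near -14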
Mtb hypoxia rep: inhibitors of hypoxia-regulated fluorescent reporter in Mycobacterium tuberculosis | M. tuberculosis hypoxia-regulated fluorescent reporter, fluorescence | fluorescence inhibition, % (test concentration not listed) | actives 0.1% (n = 300,000) | AID 1159583;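 active = 35 to 45% if threefold the growth effect, above 45% if 1.5-fold the growth effect; inactive = the rest, general growth blockers included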;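 note: wells of about 50 µL received 100 nL stock; 0% = vehicle wells and 100% = reference inhibitor wells; whole bacteria with a GFP reporter of the hypoxia response; strong numbers were not always called active; many hits fall short of the cut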
RN4220 kill: kills Staphylococcus aureus RN4220 | S. aureus RN4220 growth, OD600, 16 h | inhibition, % (test concentration not listed) | actives 0.33% (n = 330,000) | AID 1259311;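 active = z-score of -3 or lower and OD600 up to 0.18 on both plates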;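 note: plate controls were untreated cells for no effect and reference antibiotic for full effect; stock transfer was 100 nL into about 80 µL; one replicate is shown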
ugtP null kill: kills S. aureus RN4220 lacking UgtP; S. aureus RN4220 ugtP deletion, OD600 growth, 16 h; some inactives read as strong as hits; growth inhibition, % (concentration not given with the values); actives 0.54% (n = 330,000); AID 1259309;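 active = z-score under -3 and OD600 up to 0.15 on both plates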;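 note: plate controls were untreated wells for no effect and antibiotic for full effect; wells of about 80 µL received 100 nL stock; the first replicate is given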
Mtb hypoxia rep growth: further read-out of Mtb hypoxia rep, marked with its call; growth inhibition, %; measured here: M. tuberculosis growth (absorbance);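 0% = vehicle and 100% = reference antibiotic; read after six days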
An asterisk follows results filed as active; & = joins results of further samples.

`COc1cc(OC)cc(C(=O)N[C@H](C(=O)OCC(=O)Nc2ccc(F)c(F)c2)C(C)C)c1` gave Bead autofluor 2636, BJeLR viability -4, PrP 5UTR inh -2, Mtb hypoxia rep 0, RN4220 kill -9.6, ugtP null kill -17 and Mtb hypoxia rep growth 7.
Screening Cc1nnc(Nc2ccc(C(=O)N3CCOCC3)cc2)c2ccccc12 returned Bead autofluor 3890, BJeLR viability 7, PrP 5UTR inh -6, RN4220 kill 1.9 and ugtP null kill 10.
`O=C(c1sc2cc([N+](=O)[O-])ccc2c1Cl)N1CCOCC1` gave Bead autofluor 2513, BJeLR viability 7, PrP 5UTR inh -21, Mtb hypoxia rep 2, RN4220 kill 25, ugtP null kill -3 and Mtb hypoxia rep growth -1.
For COC(=O)COc1ccc(S(=O)(=O)Nc2ccc(C(N)=O)cc2)cc1Cl the results were Bead autofluor 11389, BJeLR viability 8, PrP 5UTR inh -31, Mtb hypoxia rep 6, RN4220 kill 3.1, ugtP null kill 1 and Mtb hypoxia rep growth 6.
CCn1c(C)nnc1SCC(=O)Nc1cccc(Cl)c1 was read as Bead autofluor 4198, BJeLR viability -10, PrP 5UTR inh -31, Mtb hypoxia rep -3, RN4220 kill 2.2, ugtP null kill 7 and Mtb hypoxia rep growth -4.
`O=C(Nc1cc(-c2nn(CC(=O)N3CCCCC3)c(=O)c3ccccc23)ccc1N1CCOCC1)c1ccc(Cl)cc1` gave Bead autofluor 15896, BJeLR viability -2, PrP 5UTR inh -8, Mtb hypoxia rep 2, RN4220 kill 4.6, ugtP null kill 0 and Mtb hypoxia rep growth 0.
`COc1ccc(Nc2ncnc3c2cnn3Cc2ccccc2)cc1OC` gave Bead autofluor 12235, BJeLR viability -5, PrP 5UTR inh -10, Mtb hypoxia rep 2, RN4220 kill 4.7, ugtP null kill 8 and Mtb hypoxia rep growth 7.
`COC(=O)c1[nH]c2ccccc2c1NC(=O)CCN1CCSCC1` gave Bead autofluor 6342, BJeLR viability -11, PrP 5UTR inh -14, Mtb hypoxia rep 10, RN4220 kill 6.5, ugtP null kill 9 and Mtb hypoxia rep growth 3.
`CC1COC(=O)C(Cc2ccc(F)cc2)CC=CCC(CC(=O)N(CCO)Cc2ccccc2)C(=O)N1` (centres undefined) gave Mtb hypoxia rep 2&4&6&4, RN4220 kill 1.0&4.3&2.1&5.7, ugtP null kill 1&6&-9&-1 and Mtb hypoxia rep growth 0&2&4&9.
Screening O=C(NN=Cc1ccc(F)cc1)c1cccc(NC(=O)c2ccccc2Cl)c1 returned Mtb hypoxia rep -5, RN4220 kill 4.3, ugtP null kill 9 and Mtb hypoxia rep growth 6.
COCCn1c(=S)[nH]c2cc(C(=O)N3CCN(c4ccccc4OC)CC3)ccc2c1=O was read as Bead autofluor 22207*, PrP 5UTR inh -19, Mtb hypoxia rep 4, RN4220 kill 5.7, ugtP null kill -4 and Mtb hypoxia rep growth 14.
For Cc1nn(CC(C)C)c(Cl)c1C(=O)NC1CCCCC1 the results were Bead autofluor inconclusive, PrP 5UTR inh -33, Mtb hypoxia rep 17, RN4220 kill 6.3, ugtP null kill 5 and Mtb hypoxia rep growth 12.
For O=C(CN1CCN(C(=O)c2ccco2)CC1)Nc1ccccc1-c1ccccc1 the results were Bead autofluor 4294, BJeLR viability -2, PrP 5UTR inh -20, Mtb hypoxia rep 6, RN4220 kill 5.1, ugtP null kill 6 and Mtb hypoxia rep growth 10.
N=C1/C(=C/c2cccs2)C(=O)N=C2SN=C(SCc3ccccc3)N12 was read as Bead autofluor 4507, BJeLR viability 1, PrP 5UTR inh 3, Mtb hypoxia rep 6, RN4220 kill 83, ugtP null kill 83* and Mtb hypoxia rep growth 3.
Screening CCC(=O)Oc1ccc(NC(=O)CSCc2ccccc2)cc1 returned Bead autofluor 2874, BJeLR viability -7, PrP 5UTR inh -59, Mtb hypoxia rep 2, RN4220 kill 2.8, ugtP null kill 10 and Mtb hypoxia rep growth 4.
For CCCN1C(=O)S/C(=C\c2ccc(N3CCOCC3)o2)C1=O the results were Bead autofluor 6535, BJeLR viability -6 and PrP 5UTR inh -58.
For COc1cc(/C=C/C(=O)O)cc(S(=O)(=O)N(CC(C)C)CC(C)C)c1OC the results were Bead autofluor 2025, BJeLR viability -2, PrP 5UTR inh -10, Mtb hypoxia rep 2, RN4220 kill 10, ugtP null kill 1 and Mtb hypoxia rep growth 0.
For COc1ccccc1S(=O)(=O)Cc1ccc(C(=O)N2CCN(c3ccc(C)cc3)C(C)C2)o1 (centres undefined) the results were Bead autofluor 4241, BJeLR viability 4, PrP 5UTR inh -1, Mtb hypoxia rep 0, RN4220 kill -7.6, ugtP null kill -6 and Mtb hypoxia rep growth 10.
CC(/C=C1\SC(=Nc2cccnc2)NC1=O)=C\c1ccccc1 was read as Bead autofluor 3106, BJeLR viability -3, PrP 5UTR inh -4, Mtb hypoxia rep -4, RN4220 kill 3.7, ugtP null kill -16 and Mtb hypoxia rep growth 0.
`Cc1ccc(S(=O)(=O)N2CCCN(S(=O)(=O)c3ccc4c(c3)OCCO4)CC2)cc1` gave Bead autofluor 26607*, BJeLR viability 4, PrP 5UTR inh -13, Mtb hypoxia rep -6, RN4220 kill 2.9, ugtP null kill 3 and Mtb hypoxia rep growth 1.
`Cc1cc(OCC(=O)NC(Cc2ccc(Cl)cc2)C(=O)O)c2c3c(c(=O)oc2c1)CCCC3` (centres undefined) gave Bead autofluor 4037, BJeLR viability -5, PrP 5UTR inh -3, RN4220 kill 5.4 and ugtP null kill -6.
COc1ccc(C2CC(=O)CCN2S(=O)(=O)c2ccc(C)cc2)cc1 (centres undefined) was read as Bead autofluor 2991, PrP 5UTR inh -24, Mtb hypoxia rep -1, RN4220 kill 4.6, ugtP null kill 13 and Mtb hypoxia rep growth 0.
Screening CC1(C)CC(=O)c2sc(NC(=O)c3ccco3)nc2C1 returned Bead autofluor 5355, BJeLR viability 3, PrP 5UTR inh -8, Mtb hypoxia rep 1, RN4220 kill 2.3, ugtP null kill 12 and Mtb hypoxia rep growth 1.
O=C(Nc1ccc2c(c1)C(=O)N(CC1CCCO1)C2=O)c1cccc(Br)c1 (centres undefined) was read as Bead autofluor 9734, BJeLR viability -5, PrP 5UTR inh -25, Mtb hypoxia rep 12, RN4220 kill 2.5, ugtP null kill -10 and Mtb hypoxia rep growth 9.
For CCn1c2ccccc2c2cc(NC(=O)COC(=O)C3CCC(=O)N3)ccc21 (centres undefined) the results were Bead autofluor 3180, BJeLR viability 2, PrP 5UTR inh -28, Mtb hypoxia rep 8, RN4220 kill 14, ugtP null kill 5 and Mtb hypoxia rep growth 8.
Screening O=c1cc(N2CCN(c3cccc(Cl)c3)CC2)[nH]c(=O)n1C1CCCCC1 returned Bead autofluor 3126, BJeLR viability 5, PrP 5UTR inh -9, Mtb hypoxia rep 5, RN4220 kill -9.3, ugtP null kill 1 and Mtb hypoxia rep growth -4.
CC(=NNC(=O)c1ccc(NS(=O)(=O)c2cccs2)cc1)c1cccs1 was read as Mtb hypoxia rep 8, RN4220 kill -1.4, ugtP null kill 4 and Mtb hypoxia rep growth 3.
For Cc1cc2nc(-c3ccco3)cc(C(F)(F)F)n2n1 the results were Bead autofluor 5117, BJeLR viability 8, PrP 5UTR inh -20, Mtb hypoxia rep 7, RN4220 kill 0.5, ugtP null kill 12 and Mtb hypoxia rep growth 8.
`CCOC(=O)C(=O)Nc1cc(C(=O)OC)cc(C(=O)OC)c1` gave Bead autofluor 4609, BJeLR viability 1, PrP 5UTR inh -19, Mtb hypoxia rep -5, RN4220 kill 5.1, ugtP null kill 11 and Mtb hypoxia rep growth -7.
CCOC(=O)C1(Cc2ccccc2)CCN(Cc2ccc3c(c2)OCCO3)CC1 was read as Bead autofluor 4424, BJeLR viability 2, PrP 5UTR inh -13, Mtb hypoxia rep 8, RN4220 kill 2.4, ugtP null kill 11 and Mtb hypoxia rep growth -4.
COc1ccc(-c2nc(CS(=O)(=O)CC(=O)Nc3cccc(C(C)=O)c3)c(C)o2)cc1 was read as Bead autofluor 7761, BJeLR viability -9, PrP 5UTR inh -6, Mtb hypoxia rep 8, RN4220 kill 2.1, ugtP null kill 5 and Mtb hypoxia rep growth 2.
For CCOC(=O)C1CCCN(C(=O)CNS(=O)(=O)c2ccc(Br)s2)C1 (centres undefined) the results were Bead autofluor 7967, BJeLR viability -3, PrP 5UTR inh -1, Mtb hypoxia rep 3, RN4220 kill 0.5, ugtP null kill 1 and Mtb hypoxia rep growth 5.
Cn1c(N)c(C(=O)COC(=O)c2ccco2)c(=O)n(C)c1=O was read as Bead autofluor 6098, BJeLR viability 6, PrP 5UTR inh -16, Mtb hypoxia rep -1, RN4220 kill -9.3, ugtP null kill 2 and Mtb hypoxia rep growth 8.
Screening COc1cc(/C=C2/SC(=Nc3ccc(O)cc3)NC2=O)cc(OC)c1O returned Bead autofluor 3378, BJeLR viability -15 and PrP 5UTR inh -27.
Cc1cc2c(c(=O)n1CCN(C)C)C(c1ccccc1Br)C(C#N)=C(N)O2 (centres undefined) was read as Bead autofluor 2709, BJeLR viability 0, PrP 5UTR inh -5, Mtb hypoxia rep 12, RN4220 kill 5.2, ugtP null kill 9 and Mtb hypoxia rep growth 4.
COc1ccc(C(=O)NCCc2nnc3ccc(SCC(=O)Nc4ccccc4)nn23)cc1 was read as Bead autofluor 5466, BJeLR viability 1, PrP 5UTR inh -18, Mtb hypoxia rep -2, RN4220 kill -2.9, ugtP null kill 3 and Mtb hypoxia rep growth 10.
`O=C(c1cc(-c2ccccn2)nc2ccc(Br)cc12)N1CCc2ccccc2C1` gave BJeLR viability 6, Mtb hypoxia rep -2, RN4220 kill 1.4, ugtP null kill 0 and Mtb hypoxia rep growth 1.
For COC(=O)Cc1csc(NC(=O)CSc2nncn2C)n1 the results were Bead autofluor 3790, Mtb hypoxia rep -2, RN4220 kill -0.2, ugtP null kill 2 and Mtb hypoxia rep growth -1.
For CCCCCc1ccc(OCCOCCn2c[n+](C)c3ccccc32)c(CCCCC)c1 the results were Bead autofluor 2605, BJeLR viability 1, PrP 5UTR inh -25, Mtb hypoxia rep 25, RN4220 kill 100*, ugtP null kill 101* and Mtb hypoxia rep growth 48.
For COc1ccc(N2CCN(CCCNC(=O)C(=O)c3c(C)[nH]c4ccccc34)CC2)cc1 the results were Bead autofluor 4381, BJeLR viability 9, PrP 5UTR inh -14, Mtb hypoxia rep 6, RN4220 kill 6.1, ugtP null kill 13 and Mtb hypoxia rep growth -7.
O=C(COC(=O)c1cc(=O)[nH]c2ccccc12)Nc1ccc(F)cc1F was read as Bead autofluor 3995, PrP 5UTR inh -7, Mtb hypoxia rep 8, RN4220 kill -1.4, ugtP null kill 2 and Mtb hypoxia rep growth 6.
Screening COCCNC(=O)c1ccccc1N(Cc1ccccc1)S(=O)(=O)c1ccc(C)cc1 returned Bead autofluor 4496, BJeLR viability 1, PrP 5UTR inh -6, Mtb hypoxia rep -4, RN4220 kill 3.9, ugtP null kill -3 and Mtb hypoxia rep growth 10.
For COc1ccc(-c2ccn(-c3cccc(F)n3)n2)cc1 the results were Bead autofluor 5504, PrP 5UTR inh -26, Mtb hypoxia rep -5, RN4220 kill 2.3, ugtP null kill -3 and Mtb hypoxia rep growth 11.
`COc1ccc(OC)c(-n2c(O)c(C=NCCN3CCNCC3)c(=O)[nH]c2=S)c1` gave Bead autofluor 4077, BJeLR viability 8, PrP 5UTR inh -11, Mtb hypoxia rep 11, RN4220 kill 3.3, ugtP null kill 5 and Mtb hypoxia rep growth 8.

Four entries picked at random from those above:
For Cc1cc2nc(-c3ccco3)cc(C(F)(F)F)n2n1 the results were Bead autofluor 5117, BJeLR viability 8, PrP 5UTR inh -20, Mtb hypoxia rep 7, RN4220 kill 0.5, ugtP null kill 12 and Mtb hypoxia rep growth 8.
COc1ccc(C(=O)NCCc2nnc3ccc(SCC(=O)Nc4ccccc4)nn23)cc1 was read as Bead autofluor 5466, BJeLR viability 1, PrP 5UTR inh -18, Mtb hypoxia rep -2, RN4220 kill -2.9, ugtP null kill 3 and Mtb hypoxia rep growth 10.
COc1ccc(C2CC(=O)CCN2S(=O)(=O)c2ccc(C)cc2)cc1 (centres undefined) was read as Bead autofluor 2991, PrP 5UTR inh -24, Mtb hypoxia rep -1, RN4220 kill 4.6, ugtP null kill 13 and Mtb hypoxia rep growth 0.
For CCCN1C(=O)S/C(=C\c2ccc(N3CCOCC3)o2)C1=O the results were Bead autofluor 6535, BJeLR viability -6 and PrP 5UTR inh -58.
